OX1R antag – OX1R (HCRTR1) antagonists, primary screen, fluorescence, CHO/OX1R cells, Fluo-8 calcium, orexin A. Orexin/Hypocretin receptor type 1 (Homo sapiens), O43613. Fluo-8 calcium fluorescence. inhibition, % at 5 µM. actives 0.43% (n = 330,000);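 active = inhibition above its plate's threshold, mean inhibition of all tested compounds on the plate plus 3 SD, cut at about 37% in these data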;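 also: 0% = orexin A challenge wells and 100% = SB-334867-A antagonist wells; not every result past the cut was called active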
Target sequence (O43613 whole entry, looked up): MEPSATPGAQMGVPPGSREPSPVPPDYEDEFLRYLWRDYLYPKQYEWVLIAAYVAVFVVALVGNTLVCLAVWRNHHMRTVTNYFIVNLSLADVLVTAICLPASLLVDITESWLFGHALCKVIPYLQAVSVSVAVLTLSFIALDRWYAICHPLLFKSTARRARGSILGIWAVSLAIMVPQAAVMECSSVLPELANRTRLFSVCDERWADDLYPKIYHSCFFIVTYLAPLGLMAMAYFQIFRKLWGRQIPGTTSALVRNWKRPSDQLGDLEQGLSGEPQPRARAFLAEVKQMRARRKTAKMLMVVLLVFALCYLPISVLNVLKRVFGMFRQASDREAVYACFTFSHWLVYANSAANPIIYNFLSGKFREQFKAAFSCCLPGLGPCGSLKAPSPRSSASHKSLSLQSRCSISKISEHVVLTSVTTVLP
An asterisk follows results filed as active. Some of the compounds tested; most or all hits stand in other tables.

molecule | OX1R antag
O=C(NCc1ccc2c(c1)OCO2)c1cccc2c1C(=O)N(C1CCCCC1)C2 | -24
CCn1c(SCC(=O)NC2CCCCC2)nc2ccccc2c1=O | -6
CCCC(O)(c1ccc(Cl)cc1)C(CN1CCOCC1)c1ccccc1 (centres undefined) | -67
Cc1ccc(CNC(=S)N(C)C)cc1 | -3
COc1ccc(-n2cc(-c3ccc(Br)cc3)[nH]c2=S)cc1 | -9
OCCCCNCc1ccc(OCc2ccccc2)cc1 | -22
COc1cccc(-c2nc(CS(=O)(=O)CC(=O)Nc3ccc(F)cc3F)c(C)o2)c1 | -2
Cn1c(C(=O)OC(C(=O)NC2CCCC2)c2cccnc2)cc2sccc21 (centres undefined) | 3
Cc1ccccc1NC(=O)CCN1CCN(Cc2ccccc2)CC1 | -21
Cc1nc2ccccn2c1/C(O)=C1\C(=O)C(=O)N(CCN2CCOCC2)C1c1cccnc1 (centres undefined) | -7
O=S(=O)(c1cc(Cl)ccc1Br)N1CCOCC1 | 1
Cc1ccc(NC(=O)CN(C)C(=O)CSc2nnc(C(F)(F)F)n2C)cc1 | -16
CC(Oc1cc2oc(=O)c3c(c2cc1Cl)CCCC3)C(=O)NCC1CCC(C(=O)O)CC1 (centres undefined) | -12
COC(=O)CSc1ccc(S(=O)(=O)N2CCOCC2)cc1[N+](=O)[O-] | -15
CCCCc1c(C)[nH]c(=S)[nH]c1=O | 3
Cc1cccc(CN2CCc3c([nH]c4ccccc34)C2C(C)(C)C)n1 (centres undefined) | -17
CCOc1ccc(Oc2ccc(Cl)cc2N)cc1 | -26
CCOC(=O)N/N=C\c1ccc(OC(=O)c2ccc3c(c2)OCO3)cc1 | -8
COC(=O)C1=C[C@@H](C(=O)OC)[C@@H]2C3=C(C(=O)[C@@]2(C)NC(=O)c2ccccc2)[C@H](C)n2c(=O)n(C)c(=O)n2[C@@H]3C1 | -11
CCOc1ccc(CNc2ncnc(N)n2)cc1 | -22
Cc1ccc(S(=O)(=O)N(C)C)cc1NC(=O)CN1C(=O)NC2(CCCCCC2)C1=O | -3
CCN(CC)CC#Cc1ccc(C)cc1 | -6
CC(C)(C)C(=O)Nc1c2c(nn1-c1cccc(Cl)c1)CS(=O)(=O)C2 | -7
CC1(C)OC(=O)C(=CNCC(O)c2ccccc2)C(=O)O1 (centres undefined) | -10
COC(=O)c1ccc(NC(=O)CN2CCN(c3ccccc3)CC2)cc1 | -3
COc1cc(OC)cc(C(=O)NCCNC(=O)c2ccco2)c1 | -11
O=C(NCc1ccco1)C(C(=O)c1ccc(F)cc1)n1ccccc1=O (centres undefined) | -21
CC(=O)N1c2ccc(S(=O)(=O)N3CCCC(C(=O)N4CCC(C)CC4)C3)cc2CC1C (centres undefined) | -28
CCn1ccc(C(=O)Nc2ccsc2C(=O)OC)n1 | -16
CCOC(=O)N1CCN(C(=O)C2CCN(S(=O)(=O)c3ccc(Cl)cc3)CC2)CC1 | -17
O=C(CSc1nnc(NC(=O)c2c(F)cccc2F)s1)Nc1ccc(F)cc1 | -17
CCOC(=O)c1ccc(NC(=O)CSc2nnc(CNc3ccc(C)cc3)n2C)cc1 | -44
CN1CCN(S(=O)(=O)c2ccc(NC(=S)NC(=O)c3ccccc3)cc2)CC1 | -38
Cc1ccc(S(=O)(=O)N(Cc2n[nH]c(=S)n2-c2ccccc2)c2ccccc2)cc1 | -24
COc1ccc(C2C(C(=O)c3ccco3)=C(O)C(=O)N2c2nnc(C)s2)cc1 (centres undefined) | -12
O=C(NNC(=O)c1ccccc1[N+](=O)[O-])Nc1ccccc1C(F)(F)F | -9
Cc1ccc2nc(SCC(=O)Nc3nonc3N)[nH]c2c1 | -13
CCCC(=O)Nc1ccc(NC(=O)CCc2ccccc2)cn1 | -14
Cc1ccc(NC(=O)Cn2c(=O)c3cccn3c3ccccc32)c(Cl)c1 | -22
O=C(COc1ccc(Cl)cc1Cl)NNC(=O)c1cccnc1 | -19

Ordered by count of non-hydrogen atoms (falling): 15 of the compounds above
molecule | OX1R antag
CC(Oc1cc2oc(=O)c3c(c2cc1Cl)CCCC3)C(=O)NCC1CCC(C(=O)O)CC1 (centres undefined) | -12
CCOC(=O)c1ccc(NC(=O)CSc2nnc(CNc3ccc(C)cc3)n2C)cc1 | -44
Cc1ccc(S(=O)(=O)N(C)C)cc1NC(=O)CN1C(=O)NC2(CCCCCC2)C1=O | -3
CCOC(=O)N1CCN(C(=O)C2CCN(S(=O)(=O)c3ccc(Cl)cc3)CC2)CC1 | -17
O=C(CSc1nnc(NC(=O)c2c(F)cccc2F)s1)Nc1ccc(F)cc1 | -17
Cn1c(C(=O)OC(C(=O)NC2CCCC2)c2cccnc2)cc2sccc21 (centres undefined) | 3
CCCC(O)(c1ccc(Cl)cc1)C(CN1CCOCC1)c1ccccc1 (centres undefined) | -67
CC(C)(C)C(=O)Nc1c2c(nn1-c1cccc(Cl)c1)CS(=O)(=O)C2 | -7
CCCC(=O)Nc1ccc(NC(=O)CCc2ccccc2)cn1 | -14
O=C(COc1ccc(Cl)cc1Cl)NNC(=O)c1cccnc1 | -19
CC1(C)OC(=O)C(=CNCC(O)c2ccccc2)C(=O)O1 (centres undefined) | -10
CCOc1ccc(CNc2ncnc(N)n2)cc1 | -22
O=S(=O)(c1cc(Cl)ccc1Br)N1CCOCC1 | 1
Cc1ccc(CNC(=S)N(C)C)cc1 | -3
CCCCc1c(C)[nH]c(=S)[nH]c1=O | 3

The main list resumes with the 2 entries that preceded the break.
molecule | OX1R antag
Cc1ccc(NC(=O)Cn2c(=O)c3cccn3c3ccccc32)c(Cl)c1 | -22
O=C(COc1ccc(Cl)cc1Cl)NNC(=O)c1cccnc1 | -19
Cc1cc(C(=O)N2CCN(C(=O)C3CCCO3)CC2)no1 (centres undefined) | -13
Cc1n[nH]c(=O)n1-c1ccc(C(C)C)cc1 | -16
CN(C)C(=S)Nc1ccc2ccccc2c1 | -2
CCN1CCCC1CNC(=O)c1cc(COc2ccc(C)c(C)c2)on1 (centres undefined) | -16
COc1ccc(-c2cc(C(=O)NCCCn3ccnc3)c3ccccc3n2)c(OC)c1 | -34
CCCCn1c(N)c(N(CC)C(=O)c2ccc(Cl)c([N+](=O)[O-])c2)c(=O)[nH]c1=O | 0
CN(/C(=N/S(=O)(=O)c1cccs1)c1ccccc1)c1ccccc1 | -21
CCOc1ccc(N(C(C)C(=O)Nc2ccc(OC)cc2)S(C)(=O)=O)cc1 (centres undefined) | -2
O=C(Cn1cnc2c(oc3ccccc32)c1=O)N1CCCC1 | -10
COc1ccc(CNC(=O)C(C)OC(=O)c2cccn2C)cc1 (centres undefined) | -20
N/C(=N\O)c1ccc(NC(=O)c2cccs2)cc1 | -18
O=C1CC(c2cccc(Br)c2)c2cc3c(cc2N1)CCC3 (centres undefined) | -9
O=C(Nc1cccc(S(=O)(=O)N2CCCCC2)c1)c1c2c(nc3ccccc13)CCN(Cc1ccccc1)C2 | -20
CC(=O)C1=C(C)NC(=O)NC1c1ccc2c(c1)OCO2 (centres undefined) | -4
Cc1cc(C)n(C(=O)CCC2COc3ccccc3O2)n1 (centres undefined) | -32
C=CCN=C1N[C@@H](c2ccccc2)C(C(=O)OC)=C(C)N1CCOC | -14
O=C(c1c[nH]c2ccccc12)C(Cl)c1ccccc1 (centres undefined) | -18
COc1ccc(C2c3ccc(O)cc3Oc3ncn(CCCO)c(=N)c32)cc1 (centres undefined) | -13
Cc1csc(SCC(=O)Nc2cc(C(C)(C)C)nn2-c2ccccc2)n1 | -17
Cc1ccc(NC(=O)CCC(=O)NNC(=O)c2ccco2)c(C)c1 | -19
CCc1cc2c(=O)c(-c3ccc4c(c3)OCCO4)coc2cc1OC(=O)c1ccco1 | -17
COc1ccc(CCNC(=O)CNC(=O)Cn2cnc3sc(C)c(C)c3c2=O)cc1OC | -9
O=C(CCc1ccccc1)Nc1ccc(NC(=O)c2ccco2)nc1 | -13
CCOC(=O)N1CCc2c(sc(NC(=O)c3ccc(S(=O)(=O)N4CCCC4)cc3)c2C#N)C1 | -14
C/C(=N\NC(=O)C1CC1)c1ccc(Cl)c(Cl)c1 | -2
O=C(Cc1ccc([N+](=O)[O-])cc1)NCc1ccccc1Cl | 2
CCCCC1C2C(=O)N(c3ccccc3)C(=O)C2ON1c1ccccc1 (centres undefined) | -26
N#Cc1nc(-c2ccccc2F)oc1NCc1ccccc1 | -16
CCOc1ccc(C2C(C#N)=C(N)Oc3cc(C)n(Cc4ccco4)c(=O)c32)cc1OC (centres undefined) | 1
CCn1cc(C(=O)NCC2COc3ccccc3O2)c2cc(OC)c(OC)cc2c1=O (centres undefined) | -23
CCN(C(=O)c1c(C)cc(=O)oc1C)c1ccc2c(c1)OCO2 | -4
C/C(=N\N=C(/C)c1cccc(N)c1)c1cccc(N)c1 | -9
COc1ccc2oc(C(=O)OCC(=O)N3CCN(C(C)=O)CC3)c(C)c2c1 | -6
Cc1nc2ccccc2c(=O)n1-c1ccc(NS(=O)(=O)c2cc(F)ccc2F)cc1 | -15
CC(=O)c1cc2c(cc1NC(=O)c1ccccc1C)OCO2 | -13
CCN(Cc1cc2ccccc2[nH]c1=O)S(=O)(=O)c1ccccc1 | -24
COc1ccc(CC(=O)Nc2nc(-c3cccc([N+](=O)[O-])c3)cs2)cc1 | 12
O=C(NCCN1CCOCC1)c1ccc(CSc2nc3ccncc3n2Cc2ccc(F)cc2)cc1 | 15
CCN1CCN(S(=O)(=O)c2ccc3c(c2)OCCO3)CC1 | -19
O=C(COc1cccnc1[N+](=O)[O-])NCCc1ccc(Cl)cc1 | -8
CC(C)(C)n1nnnc1CN(Cc1ccc(F)cc1)Cc1ccco1 | -31
COC(=O)C1=C(C)Nc2ncnn2C1c1ccccn1 (centres undefined) | -12
Nc1nnc(SCC(=O)NC2CCCC2)s1 | 11
Cn1c(NC(=O)C2c3ccccc3Oc3ccccc32)cc(=O)n(C)c1=O | 6
COc1ccc([N+](=O)[O-])cc1N(CC(=O)NCC1CCCO1)S(C)(=O)=O (centres undefined) | 7
Cc1cc(C)cc(NC(=O)CCCn2nc(C)c3c(C)n(-c4ccccc4)nc3c2=O)c1 | -26
COc1ccc(NC(=O)COC(=O)/C=C/C(=O)OCC(=O)Nc2ccc(OC)c(Cl)c2)cc1Cl | 7
COc1ccc(C2SCC(=O)N2c2ccccc2)cc1 (centres undefined) | -8
O=C(Cn1nc2n(c1=O)-c1ccccc1SC2)N/N=C/c1cccnc1 | -14
CCC(C)NC(=O)c1ccccc1NC(=O)CN(c1cc(C)ccc1OC)S(C)(=O)=O (centres undefined) | -15

New compounds follow
molecule | OX1R antag
CCC(C)NC(=O)Nc1ccc2c(c1)N(C)C(=O)c1ccccc1S2 (centres undefined) | -22
Cc1nn(Cc2ccccc2Cl)c(C)c1C(=O)NCc1ccco1 | -21
CC1=CC(C)C2C(=O)N(c3ccccc3)C(=O)C2C1 (centres undefined) | -3
CCC1CCc2c(sc3ncnc(N4CCOCC4)c23)C1 (centres undefined) | -47
CCOC(=O)c1c(-c2ccccc2)oc2ccc(OC)cc12 | -24
c1nc(N2CCOCC2)c2[nH]cnc2n1 | -4
O=c1c(-c2ccccc2Cl)c[nH]n1-c1ccccc1 | -15
O=C(O)CCC(=O)Nc1cccc(-c2csc(-c3ccccc3)n2)c1 | -8
CCOc1ccc(N2CC(C(=O)Nc3cc(Cl)ccc3-n3cncn3)CC2=O)cc1 (centres undefined) | -15
Cc1c(NC(=S)NC(=O)CC(C)C)c(=O)n(-c2ccccc2)n1C | 3
CCN(CC)S(=O)(=O)c1cc(NC(=O)CCNC(=O)c2ccccc2Cl)ccc1C | -26
CC(O)Cc1nsc(NC(=O)c2ccc(Br)o2)n1 (centres undefined) | -9
COc1cccc(CNc2ccc(C(=O)O)cc2)c1OCc1ccccc1 | 3
COc1ccc(C2=Nc3ccccc3OC2)cc1 | -13
CC(C)(C)OC(=O)NCC12C=CC(O1)C1C(=O)N(Cc3ccccc3)C(=O)C12 (centres undefined) | -5
O=C(O)C1CCN(C(=O)CSc2nc3ccccc3c(=O)n2Cc2ccccc2)CC1 | -7
COC(=O)c1cccc(C23CC4(C2)[C@H](CN(Cc2ccc(-c5ccccc5)cc2)[C@@H]4c2ccccc2)C3c2ccc(Cl)nc2)c1 (some centres undefined) | -26
CCOC(=O)N1CCC(NC(=O)c2ccc3c(c2)N=C(CC)c2cc(C)ccc2S3)CC1 | -16
CCC1(C)Cc2ccccc2-c2nc(NCCCO)[nH]c(=O)c21 (centres undefined) | -41
c1ccc(N2CCN(Cc3nc4ccccc4[nH]3)CC2)nc1 | -10
Cc1ccc(C(C)C)c(OCc2nnc(SCC(=O)Nc3nccs3)n2C)c1 | -20
COc1ccc(C(=O)Nc2cccc(C(=O)N3CCCC3)c2)cc1 | -27
Cc1ccc(NC(=O)c2ccc(OC(F)(F)F)cc2)cc1S(=O)(=O)N(C)C | -3
Cc1cccc(NC(=O)CSc2nnc(-c3ccncc3)n2C)c1 | -5
CC(C)/C=C/C(=O)N1CCC(N2CCC(C(=O)NCc3ccccn3)CC2)CC1 | -1
NS(=O)(=O)c1cc(C(=O)OCC(=O)NNC(=O)c2ccccc2)ccc1Cl | -4
O=C1CC(N2CCN(c3cccc(C(F)(F)F)c3)CC2)C(=O)N1c1ccccc1 (centres undefined) | -6
COc1ccc(C)cc1NC(=O)n1ncc2c(C)cccc21 | -6
Cc1ccc[n+](CC(=O)Nc2cccc(Cl)c2)c1 | -19
CCOC(=O)Cn1nnnc1CN(CCc1ccccc1)Cc1cc2cc(CC)ccc2[nH]c1=O | -24
Cc1ccc(S(=O)(=O)N[C@H](C(=O)N2CCC3(O)CCCCC3C2)c2ccccc2)cc1 (some centres undefined) | -15
COCCCN1C(=O)C(=O)/C(=C(/O)c2ccc(S(=O)(=O)N3CCOCC3)cc2)C1c1ccc(Cl)cc1 (centres undefined) | -10
CCc1cccc(OCCn2ccnc2)c1 | 1
